NPR1 antag: Natriuretic polypeptide receptor (hNpr1) antagonism - Primary qHTS | Potency, µM (doses to about 46.3 µM), for inactives: at the highest dose activity change, negative = inhibition, actives largely listed as inhibitors | HEK293 hNpr1 GloSensor cGMP, ANP-stimulated luminescence | actives 1.6% (n = 76,000) | Atrial natriuretic peptide receptor 1 (Homo sapiens), P16066; active = well fitted inhibition curve with a large enough effect; inconclusive = small, poorly fitted or top-dose-only effect; inactive = no such curve, though single readings can be large or run the other way;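 further: nearly all actives have a fitted effect of over 60% in size; nearly all hits also lower the signal before the agonist is added; a reference antagonist and vehicle were the controls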
Target sequence (P16066 whole entry, looked up): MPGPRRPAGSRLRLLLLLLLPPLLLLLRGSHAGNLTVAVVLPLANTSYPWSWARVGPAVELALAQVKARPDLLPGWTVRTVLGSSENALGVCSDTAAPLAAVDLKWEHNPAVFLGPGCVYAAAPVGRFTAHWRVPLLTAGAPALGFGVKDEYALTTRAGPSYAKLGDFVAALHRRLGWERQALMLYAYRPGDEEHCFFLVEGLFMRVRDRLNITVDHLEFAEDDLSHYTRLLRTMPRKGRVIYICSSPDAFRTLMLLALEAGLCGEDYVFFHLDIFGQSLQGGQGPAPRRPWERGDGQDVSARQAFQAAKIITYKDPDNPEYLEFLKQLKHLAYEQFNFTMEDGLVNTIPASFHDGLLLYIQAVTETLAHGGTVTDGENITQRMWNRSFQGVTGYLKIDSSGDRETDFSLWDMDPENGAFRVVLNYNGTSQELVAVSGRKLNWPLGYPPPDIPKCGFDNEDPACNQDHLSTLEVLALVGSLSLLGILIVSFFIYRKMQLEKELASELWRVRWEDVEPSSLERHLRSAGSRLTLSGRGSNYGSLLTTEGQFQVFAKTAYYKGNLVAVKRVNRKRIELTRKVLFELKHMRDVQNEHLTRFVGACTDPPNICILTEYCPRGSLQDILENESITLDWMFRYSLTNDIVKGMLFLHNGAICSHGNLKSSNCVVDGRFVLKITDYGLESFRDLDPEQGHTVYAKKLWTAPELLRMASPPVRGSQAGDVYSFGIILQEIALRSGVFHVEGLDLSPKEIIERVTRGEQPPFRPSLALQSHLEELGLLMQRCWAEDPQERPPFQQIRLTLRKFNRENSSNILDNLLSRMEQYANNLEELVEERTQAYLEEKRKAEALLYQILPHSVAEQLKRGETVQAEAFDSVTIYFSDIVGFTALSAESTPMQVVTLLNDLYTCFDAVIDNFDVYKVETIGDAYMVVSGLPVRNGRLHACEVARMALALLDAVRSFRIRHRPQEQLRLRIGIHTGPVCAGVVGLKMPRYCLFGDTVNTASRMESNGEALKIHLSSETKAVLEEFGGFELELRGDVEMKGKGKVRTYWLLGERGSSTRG
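Compound pre-incubated 30 min at room temperature on GloSensor-loaded HEK293 cells stably carrying hNpr1 and the pGS-40F cGMP biosensor. Stimulation uses hNppA at 0.1 nM final; luminescence is taken at baseline and 20 min post-agonist.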
Numbers without * were called inactive; ? = inconclusive; [ ] = another dose, or the depositor's remark. On the % scale 0 is the no-effect control and ±100 the full control effect; potency means the concentration at half of the fitted maximal effect. The list is partial. The share of hits here may be higher or lower than overall.

smiles | NPR1 antag
CCc1cc(=O)n(CC(=O)Nc2cccc(C(C)=O)c2)c(N2CCOCC2)n1 | -19.1%
CCCCc1cc(C[C@H]2CNCC[C@H]2CC(=O)NCc2cccnc2)no1 | 0.1%[70.6 µM]
CNc1ncc(C(=O)N2CCN(c3nccc(N)n3)CC(O)C2)cn1 (configuration not stated) | -3.9%
COc1ccc(-c2cc(-c3cnc4[nH]ccc4c3)cn3cncc23)cn1 | -17.2%[70.6 µM]
COc1ccc(CNC(=O)CC[C@H]2CNC(=O)[C@@H]3[C@@H](CCN3Cc3ccccc3)N2C)cc1 | 1.9%
CC1CN(c2ccccc2C#N)C(=O)CN1C(=O)Cc1c[nH]c(=O)[nH]c1=O (configuration not stated) | -0.7%
Cc1ccc(C)c(S(=O)(=O)N(C)CC2CCOCC2)c1 | -2.9%
CN1CCC(Cn2ccc3c(N4CCOCC4)nc(-c4cccc(N[S+](C)(=O)[O-])c4)cc32)CC1 | 0.2%
COc1ccc(CN2C=C(C(=O)OCc3noc(-c4ccccc4)n3)C(C)=NS2(=O)=O)cc1 | ?
CC(=O)N(C)C1CCc2ccccc21 (configuration not stated) | 0.0%[70.6 µM]
C[C@@H]1CN(C(=O)c2nc3sccn3c2-c2nc3ccccc3n2C)C[C@H](C)O1 | 5.7%
O=C1NC2(CCN(Cc3cccnc3)CC2)COc2ccccc21 | -4.8%[70.6 µM]
Cc1ccc(-c2nnc([C@H]3CCN(Cc4ncc[nH]4)C3)o2)cc1 | 0.5%[70.6 µM]
COc1ccc(NC(=O)N2c3ccccc3CC2c2nc(C(C)C)no2)c(C)c1 (configuration not stated) | 4.4%
O=C(NCc1cccnc1)c1c(OCC2CC2)cc(=O)n2c1CCOCC2 | 3.8%

smiles | NPR1 antag
COc1ccc(NC(=O)Nc2cccn3nc(C(C)C)nc23)cc1 | -12.3%
O=C(Cc1c[nH]c2ncc(-c3ccc(Cl)cc3)cc12)NCc1cccnc1 | -30.2%[70.6 µM]
O=C(c1ccc2c(c1)OCO2)N1CCn2c(nn(-c3cccc(Cl)c3)c2=O)C1 | -15.5%
O=C(Cn1nc2n(c1=O)CCCC2)NCc1ccccc1 | -6.5%
CC1=C[C@@H](CN2C(=O)C(C)=C(C)C2=O)[C@H](C(C)C)C[C@H]1Cc1nc2ccccc2[nH]1 | ?
Cn1c(CO[C@H]2CN(C(=O)C3CC3)C[C@H]2F)nc2ccccc21 | -0.5%[70.6 µM]
Cc1n[nH]c(C)c1C(N)C(=O)NCc1ccccc1-n1ccnc1C (configuration not stated) | 2.8%
CN(Cc1cccn1C)C(=O)c1ccc(F)cc1 | 16.8%[70.6 µM]
O=C(NC1CCN(c2cc(-c3ccc(Cl)cc3)[nH]n2)C1)c1ccccc1F (configuration not stated) | -13.6%
CN(Cc1ccccc1)C(=O)C[C@@H]1c2nc(NC(=O)CC(C)(C)C)sc2C[C@@H]2[C@](C)(CO)[C@H](O)CC[C@]21C | -4.8%
COc1cccc(S(=O)(=O)N2C[C@@H](F)C[C@H]2C(=O)N2CCOCC2)c1 | -13.0%
CC(C)CN1CC2(CCN(C(=O)c3cc(-c4ccccc4)nn3C)CC2)CC1=O | 2.2%
CSc1ccc(-c2ccc3c(c2)C(=O)N2CC[C@H](NC(=O)c4cccs4)C[C@H]2C(=O)N3)cc1 | 0.3%
O=C(Cn1nc2c(cc1=O)CCCCC2)N1CCN(Cc2ccc3c(c2)OCO3)CC1 | -19.0%
COc1ccc(CCC(=O)NCC23CCC=C2NC(=O)CC3)cc1 (configuration not stated) | 7.9%

smiles | NPR1 antag
CCc1noc(Cc2c(C)nn(-c3ccccc3)c2C)n1 | -2.1%
COc1ccccc1-c1nccc2c(=O)cc(N3CCOCC3)oc12 | 1.2%[70.6 µM]
O=C(Cn1cccc1-c1nc(-c2ccc3c(c2)OCO3)no1)Nc1ccccc1 | -1.2%
CNC(=O)CCn1ncc2cc(OCc3ccccc3-c3cncc(OC)c3)ccc21 | -11.4%[70.6 µM]
CC(=O)N1CCC(NC[C@H]2Cn3c(-c4ccccc4)cnc3CO2)CC1 | 10.4%[70.6 µM]
Cc1ccc(C(=O)NCc2nnc3ccc(-c4ccccc4)nn23)c(C)c1 | 1.3%
NC(=O)Cn1ccc2cc(OCC3CCN(C(=O)CC4CC4)CC3)cnc21 | -2.5%[70.6 µM]
CC(C)(C)CC(=O)N1CCN2C(=O)c3cc(-c4ccccc4)ccc3NC(=O)[C@H]2C1 | -0.8%[70.6 µM]
CCCC1=Nc2cc(C(=O)NCCc3ccc(OC)c(OC)c3)ccc2Sc2ccccc21 | ?
COCCNC(=O)[C@H]1C[C@H](Oc2cccnc2)CN1C(=O)Nc1cccc(C)c1 | 2.2%
CS(=O)(=O)c1ccc(CN2C[C@H](O)C[C@H]2c2nc(C3CC3)no2)cc1 | 0.9%[70.6 µM]
O=C1Cc2c(-c3ccc4c(c3)OCO4)n[nH]c2CN1Cc1ccccn1 | 2.0%[70.6 µM]
O=C(NC[C@H]1Cn2c(-c3ccc(F)cc3)cnc2CO1)c1ccc(Cl)cc1 | 17.8µM*
CNC(=O)N1CCC(OC2CCN(Cc3ccccc3)CC2)CC1 | -0.1%
Cc1cccc(C(=O)N2CCC3(CCCCO3)CC2)c1 | -1.5%

smiles | NPR1 antag
Cn1c(=O)n([C@H]2CCCN(C(=O)Nc3ccc4c(c3)OCCO4)C2)c2ncccc21 | -4.2%
COc1ccc(CN(Cc2ccc(OC)cc2)[C@@H]2CO[C@H](CNC(=O)CC(C)(C)C)[C@H]2O)cc1 | 1.4%
COCCN(Cc1ccncc1)C(=O)C1CCN(C(=O)C2CC2)CC1 | -0.2%
Cc1noc(C)c1CN1CC[C@@H]2OCC(=O)N(Cc3c[nH]c4ccccc34)[C@H]2CC1 | -10.5%[70.6 µM]
Cc1nnc2n1CCC(NC(=O)c1ccc3c(c1)OCO3)CC2 (configuration not stated) | -2.2%
COc1cccc(-c2cc3c(=O)n(CCNC(=O)Cc4ccsc4)ccn3n2)c1 | -2.7%
O=C(Nc1ccc([C@@H](O)[C@H]2COCC(=O)N2CCCc2ccccc2)cc1)c1cnccn1 | 1.2%
CC[C@@H]1[C@@H](NC(=O)CSCc2ccccc2Cl)[C@@H]2CCO[C@H]12 | -11.4%
C[C@@H]1C(=O)O[C@H]2[C@H]1CC[C@@]1(C)Cc3sc(NC(=O)c4c(Cl)cccc4Cl)nc3[C@@H](C)[C@H]21 | -3.4%
O=c1cc(-c2cccnc2)oc2c(-c3cn[nH]c3)nccc12 | 1.1%[70.6 µM]
CCN(CC)C(=O)CCc1c(C)nn(-c2ccccc2)c1Oc1cccc(F)c1 | -14.0%
O=C1NN=C(C2CC2)C12CCN([S+](=O)([O-])c1cccc(C(F)(F)F)c1)CC2 | -0.1%
Cc1ccc2oc(C(=O)NC3CC(=O)N(C(C)C)C3)c(C)c2c1 (configuration not stated) | -2.3%
Fc1ccccc1Nc1cnc2ccc(-n3ccnc3)nn12 | -11.4%[70.6 µM]
NS(=O)(=O)c1ccc(-n2nc(-c3ccncc3)nc2C2CCOC2)cc1 (configuration not stated) | 4.8%

smiles | NPR1 antag
Cn1cnc(S(=O)(=O)NCC(=O)N2CCCCCNC(=O)CC2c2ccccc2)c1 (configuration not stated) | 3.4%
CC(C)N1C(=O)C2(CCCC2)C1C(=O)N1CCN(C)CC1 (configuration not stated) | -1.9%
CC(C)(C)CC(=O)N1CC[C@@H](CC(=O)O)[C@@H](CCN2CCN(c3ccccc3)CC2)C1 | -0.1%[70.6 µM]
CC(C)c1nc2c(c(-c3ccc(O)cc3)n1)CN(Cc1cccnc1)CC2 | 7.5%
CCCC1c2nccn2CCCN1C(=O)c1n[nH]c(=O)c2ccccc12 (configuration not stated) | -0.2%
CN(Cc1ccc(-c2ccccc2)cc1)Cc1cccnc1 | 8.91µM*
COc1ccc(CNC(=O)C[C@@H]2CCNC[C@@H]2Cc2cc(CN(C)Cc3ccccc3)on2)cc1 | -2.9%
CCCN(CC1CCOC1)S(=O)(=O)c1ccccc1Cl (configuration not stated) | -1.8%
CNC(=O)N1CCC(C2CCN(Cc3ccc(OC)cc3)C2)CC1 (configuration not stated) | 5.4%
COCCOCC(=O)N1CCN(C(=O)N2CC3CC(C2)[C@H]2CCCC(=O)N2C3)CC1 (some centres not stated) | 1.1%
O=C(c1cn(-c2ccccc2)nn1)N(Cc1cccnc1)C1CCNCC1 | 3.1%
O=C(NCC1CCCCC1)c1cc2n(n1)CC(c1ccc(Cl)cc1)OC2 (configuration not stated) | -6.7%
COC(=O)CCC(=O)N1CCOC(CCCC(C)C)C1 (configuration not stated) | -3.5%
O=C1N(C2CCOCC2)C[C@H]2CN(Cc3ccc(F)cc3)CCN12 | 3.6%[70.6 µM]
COCc1nc(C2CC(NC(=O)C(=O)c3ccco3)C2)cc(=O)[nH]1 (configuration not stated) | 3.8%

Reprinted from the results shown for reference:
smiles | NPR1 antag
COCCOCC(=O)N1CCN(C(=O)N2CC3CC(C2)[C@H]2CCCC(=O)N2C3)CC1 (some centres not stated) | 1.1%
O=C(c1cn(-c2ccccc2)nn1)N(Cc1cccnc1)C1CCNCC1 | 3.1%

More entries.
smiles | NPR1 antag
Cc1nc(N2CCN(C(=O)c3ccccc3Cl)CC2)cc(C(F)(F)F)n1 | 5.5%
COc1ccc(-c2cnc(Nc3cc(F)cc(N4CCOCC4)c3)c3c2CCO3)cn1 | -0.6%[70.6 µM]
CCOc1ccc(C(=O)N2CCC(c3n[nH]c(=O)n3-c3ccc(C)cc3)CC2)cc1 | 3.8%
CCCNC(=O)N1CCc2nc(N3CCN(C)CC3)sc2C1 | 0.6%
O=C(Nc1ccc(Cl)cc1)c1nc2c(o1)CCN(CC1CCCC1)CC2 | 28.2µM*
O=C(O)COc1ccccc1CN1CC[C@H]2NCCC[C@]2(C(=O)O)C1 | -1.8%
O=C(CC[C@@H]1CNC(=O)[C@@H]2C[C@H](NC(=O)C3CC3)CN12)NCc1cccs1 | -0.9%[70.6 µM]
COc1ccc(Cn2c(C3CCN(C(=O)c4sccc4C)CC3)n[nH]c2=O)cc1 | -2.7%
CCNC(=O)Nc1ccc(OCC(=O)N2CCN(c3cccc(OC)c3)CC2)nc1 | -1.1%
CC(C)NC(=O)C[C@@H]1C[C@H]2O[C@H](CN(C)C)[C@@H](O)[C@H]2O1 | 2.0%[70.6 µM]
O=c1[nH]c(N2CCOCC2)nc2c1CCN(Cc1cccc(F)c1)CC2 | 1.7%
Cn1cnnc1CC1CCN(c2ncc(C(F)(F)F)cc2Cl)CC1 | 3.6%
CCn1ncc(N2CCC(NC(=O)Cc3cccc(F)c3)CC2)cc1=O | -1.7%
O=C(CC1C(=O)NCCN1CC(c1ccccc1)c1ccccc1)NCc1ccoc1 (configuration not stated) | 2.6%
CCC1(O)CCC12CCN(C(=O)CCc1nc3ccccc3s1)CC2 (configuration not stated) | -12.8%

smiles | NPR1 antag
COc1cccc(C(=O)N2CCC(N3C[C@H](O)C[C@H]3C(=O)NCc3ccc(F)cc3)CC2)c1 | 1.1%
COc1ccccc1CCNC(=O)Cn1nc2c(cc1=O)CCCC2 | 8.5%
COCCN1CCC(N2CCN(S(=O)(=O)c3ccc(OC)c(Cl)c3)CC2)C1=O (configuration not stated) | 4.5%
O=C(NCCCn1ccnn1)[C@H]1CNC[C@@H](C(=O)N2CCCC2)C1 | 6.9%
COc1cccc(NC(=O)c2ccc3c(c2)NC(C)(COCCN(C)C)CO3)c1 (configuration not stated) | -1.0%[70.6 µM]
Cn1nc(C2CCN(C(=O)c3ccc(CO)o3)CC2)n(-c2ccccc2)c1=O | 0.9%
CC(C)(C)c1cc(CC2(NCc3ccc(CO)o3)COC2)no1 | -1.8%[70.6 µM]
O=S(=O)(N1CCCCC1)N1CCOC(Cc2ccccc2Cl)C1 (configuration not stated) | -3.6%
COc1ccc(-c2noc([C@@H]3CCCN3C(=O)c3ccccc3OC)n2)cc1OC | -2.5%
COc1ccc(C(=O)N2CCC(C3CCN(S(C)(=O)=O)CC3)C2)cc1OC (configuration not stated) | 17.2%
O=C1NC2(CCN(C(=O)Cc3ccccc3)C2)Oc2ccccc21 (configuration not stated) | 0.0%[70.6 µM]
CCN(CC)C(=O)[C@@H]1CCC[C@@H](NCc2cnn(C)c2)CN(C)C(=O)C1 | -0.5%[70.6 µM]
CN[C@@H](CC(C)C)C(=O)N[C@H]1C[C@@](O)(C(=O)N[C@H](Cc2c[nH]c3ccccc23)C(N)=O)C[C@@H](O)[C@@H]1O | 1.0%
COCCNC(=O)C1COC2(CCN(C(=O)c3ccc(F)cc3)CC2)N1C(=O)c1ccc(C)cc1 (configuration not stated) | 5.5%
C1CC(Cc2noc(C3CCOCC3)n2)CN1 (configuration not stated) | 4.3%

smiles | NPR1 antag
Cc1cncc(-c2ccccc2OCCN(C)C)c1 | 1.2%
COc1ccc(Cl)cc1C(=O)N1CCC2(CC1)CN(C(C)=O)CC2CO (configuration not stated) | 3.5%
COCCc1noc(CN(C)c2cc(C(C)C)nc3ccnn23)n1 | 4.6%
Cc1noc(-c2cn(C3CCN(C(=O)c4ccccc4Cl)C3)nn2)n1 (configuration not stated) | 0.0%
CNC(=O)c1cc(-c2cnn(C)c2C)cc2c1OCCN2Cc1cccnc1 | 1.1%[70.6 µM]
Cc1cc(C)c(CNC(=O)c2nc(-c3ccccc3)cc3[nH]ccc23)c(=O)[nH]1 | -0.6%[70.6 µM]
O=C1CC(c2ccccc2)N(C(=O)c2ccsc2)CCCCCN1 (configuration not stated) | -1.0%
CCOc1ccc(C2NC(=O)N(CC(=O)N3CCC(C)CC3)C3=C2C(=O)OC3)cc1 (configuration not stated) | -0.9%

Screening data from PubChem.
